TAR Tat displ – TAR RNA-Tat peptide displacers, HIV-1, primary screen, biochemical, FRET, FAM/TAMRA-labeled Tat; 0.6% of 100,000 active; AID 1259389, 2018; HIV-1 TAR RNA, Tat peptide displacement FRET; stronger effect = higher value; z-score (no concentration beside the values);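 note: score is relative to mean and SD of negative controls; some compounds called inactive have numbers as strong as hits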
CDC25B CDK2 inh – primary biochemical HTRF screen for blockers of M-phase inducer phosphatase 2 binding to CDK2/cyclin A. HTRF CDC25B-CDK2/CyclinA binding, anti-His/anti-Flag; stronger effect = higher value. 0.72% of 94,000 active. z-score (test concentration not listed). P30305+P24941;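 note: score is relative to mean and SD of negative controls; strong numbers were not always called active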
Numbers without * were called inactive; / = not tested or not shown.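 Rule for the calls: active = z-score from 3 up in half or more of its runs; inactive = the rest.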

smiles	TAR Tat displ	CDC25B CDK2 inh
CCCn1c(C)ccc(-c2noc(CCC(=O)Nc3c(C)n(C)n(-c4ccccc4)c3=O)n2)c1=O	-0.58	-1.6
O=C(Nc1ccc2c(c1)OCCO2)C1CCN(S(=O)(=O)c2ccc(Cl)cc2)CC1	/	0.05
CCCCSc1nnc2c(n1)OC1(Nc3ccccc3-2)C(=O)Nc2ccc(F)cc21 (stereo unspecified)	/	-0.99
CC1=C(C(=O)OCC2CCCO2)C(c2cccs2)C2=C(CC(C)(C)CC2=O)N1 (stereo unspecified)	0.87	0.27
COc1ccc(-c2noc(N3CCN(c4ccc(F)cc4)CC3)n2)cc1	-0.63	0.71
Cc1c(C(=O)Cn2ccnc2)sc2ccc(Cl)cc12	/	14*
CC(C)C(=O)Nc1cc(C(F)(F)F)cc(C(F)(F)F)c1	/	-2.3
Cn1cnc2c1c(=O)n(Cc1cccc(C(F)(F)F)c1)c(=O)n2C	/	-0.27
O=c1cc(C(F)(F)F)cc[nH]1	/	-1.7
Cc1cc2c(cc1NS(=O)(=O)c1ccc3c(c1)n(C)c(=O)n3C)n(C)c(=O)n2C	-0.02	/
Cc1nc(NC(=O)Nc2sc(=S)n(C)c2C)sc1C(=O)Nc1ccccc1	0.83	0.12
CN(CC(=O)N1CCc2ccccc2C1)S(=O)(=O)c1ccc2c(c1)NC(=O)CS2	2	/
OC(COC1CCCCC1)Cn1c2ccccc2c2ccccc21 (stereo unspecified)	/	-0.13
O=C(Nc1nc(-c2ccc(Br)cc2)ns1)c1ccccc1	2.2	-0.2
CC(=O)Nc1c2n(c3ccc(F)cc13)CC(C)(C(=O)NC1CCCCC1)N(Cc1cccs1)C2=O (stereo unspecified)	1.4	/
Cc1ccc(S(=O)(=O)N/N=C/c2cccc([N+](=O)[O-])c2)cc1	/	-0.29
CNC(=O)N1c2ccccc2NC2=C(C(=O)CC(c3ccco3)C2)C1c1ccc(OC)cc1 (stereo unspecified)	1.3	/
COc1ccc(-c2nnc(-c3sc4ccccc4c3Cl)o2)cc1	0.76	-0.14
COCCOC(=O)C1=C(C)N=C2SCCC(=O)N2C1c1cccs1 (stereo unspecified)	0.99	-0.76
Cc1nc(-c2ccc(S(=O)(=O)Nc3ccccc3C)cc2)co1	1.2	/
CC(C)Cn1cc(NC(=O)NCCCN2CCN(C)CC2)c2ccccc2c1=O	1.3	/
CCc1cccc(NS(=O)(=O)c2cc(-c3cnc(C)o3)ccc2C)c1	-0.18	/
COc1ccc(-c2nc3ccccc3o2)cc1N	1.1	-2.4
Oc1c(C(Nc2ccccc2Cl)c2cccnc2)ccc2cccnc12 (stereo unspecified)	0.96	0.92
COc1cc(C(=O)Nc2ccccn2)cc(OC)c1OC	/	-1.9
CCCCCOC(=O)CSc1nnc(-c2ccccc2)o1	0.82	/
CCCCN(Cc1ccco1)C(=O)c1cc2c(s1)-c1ccccc1OC2	0.52	-0.45
Oc1ccccc1C1=NC(c2ccc(F)cc2)NC(c2cccnc2)C1 (stereo unspecified)	1	0.31
C=CCN1C(=O)c2[nH]nc(-c3cc(C)ccc3O)c2C1c1ccc(OCC)cc1 (stereo unspecified)	1.7	-0.93
CCOc1cc(C2CC(=O)NC3=C2C(=O)CC(c2cccs2)C3)cc(Br)c1O (stereo unspecified)	1.3	-0.07
CCOC(=O)C(C)NC(=O)CCc1nnc2ccc(N3CCN(C)CC3)nn12 (stereo unspecified)	-0.8	/
CCCCn1nnc2c(sc3nc(C)cc(COC)c32)c1=O	1.3	-0.64
Cn1c(=O)c(-c2nnc(NC(=O)c3ccccc3)o2)nc2ccccc21	0.55	/
Cc1ccc(-n2cc3c(c2-c2ccccc2Br)c(=O)n(C)c(=O)n3C)cc1N	-1.3	3
CCOC(=O)c1[nH]c(C)c(C(=O)Nc2ccc3c(c2)OCCO3)c1C	/	-0.57
O=C(Nc1ccc(F)cc1)C1CC2CCCN2C12C(=O)Nc1ccccc12 (stereo unspecified)	-1.8	/
COCCNC(=O)C1CCN(C(=O)c2cc3sccc3n2C)CC1	0.16	-2.5
Cc1cc2c(cc1S(=O)(=O)NCc1ccc(F)cc1)OCCN2C	-8.6	/
Cc1ccc(-n2c(C)nc3c(cnn3-c3ccc(F)cc3)c2=O)cc1	/	-2.5
N#CC(C(=O)c1ccc(Cl)cc1)=C1SCCS1	/	-1.8
O=C(CSc1nc2c(c(=O)n1-c1ccc(Br)cc1)SCC2)N1CCCC1	0.19	-1.9
O=C(NC1CCCCC1)C(c1cnc2ccccc2c1)N(C(=O)c1cnccn1)c1cccs1 (stereo unspecified)	0.48	0.53
CCCCNc1nc(Oc2ccc(OCC)nn2)nc(N2CCOCC2)n1	0.01	0.3
CCOC(=O)CSc1nc(C)c2cc(OC)ccc2n1	0.2	1.4
Cc1ccc(S(=O)(=O)N(CC(O)CN2CCCCC2)c2cccc3ccccc23)cc1 (stereo unspecified)	/	-0.06
Cc1ccccc1C1CC(=O)Nc2c1c(C)nn2-c1nncc(-c2ccc(F)cc2)n1 (stereo unspecified)	1.9	0.53
CCn1c(CN2c3ccccc3Sc3ccccc32)n[nH]c1=S	/	-0.12
Cc1ccc(Nc2nc(NCC3COCCO3)nc3c2cnn3C)cc1 (stereo unspecified)	1.8	/
O=c1c(NCc2ccc3c(c2)OCO3)nccn1-c1ccccc1	-1.1	/
N#C/C(=N\Nc1cccc(C(F)(F)F)c1)S(=O)(=O)c1ccsc1	/	-0.68

The list continues:
smiles	TAR Tat displ	CDC25B CDK2 inh
Cn1nnnc1SCCCNCc1ccc(Cl)cc1	1.7	-0.6
O=C(CSc1ccc(Cl)cc1)NCCSCc1ccco1	-0.12	0.33
Cc1cc(C)cc(NS(=O)(=O)c2cc3c4c(c2)C(C)C(=O)N4CCC3)c1 (stereo unspecified)	0.66	/
CN(C)S(=O)(=O)c1ccc2c(c1)N(CC(=O)NC1CCCC1)CCS2	-0.82	/
Cc1cc(O)ccc1N1CC(O)=C(c2nc3ccccc3[nH]2)C1=N	2.4	-2
Cc1nc2nc(NC(=O)CC(C)C)[nH]n2c(=O)c1Cl	1.2	0.02
Cc1[nH]c2ccccc2c1C(=O)C(=O)Nc1cccc(Br)c1	-1.3	-0.8
Cc1nn(C)c(C)c1CNC(=O)NCCC(C)C	-0.91	/
Cc1nc2c(oc3ccccc32)c(=O)o1	/	-2.6
O=C1c2oc3ccc(Cl)cc3c(=O)c2C(c2ccc(O)cc2)N1Cc1ccccc1 (stereo unspecified)	1.5	-1.9
COc1cc(C2C(N3C(=O)c4ccccc4C3=O)C(=O)N2c2cccc(C)c2)cc(OC)c1OC (stereo unspecified)	/	0.58
Cc1ccc(CSCCNC(=O)c2ccc(OC3CSC3)cc2)cc1	/	-2.6
COc1ccc(S(=O)(=O)N(C(=O)c2ccco2)c2cc3sc(=O)oc3c3ccccc23)cc1	1.8	16*
O=C(CC1CCCCC1)Nc1cc(F)c2nc(N3CCOCC3)ccc2c1	-0.44	/
COC(=O)CN1C(=O)CSc2ccc(S(=O)(=O)NC3CCCCC3)cc21	0.01	/
Cc1nc(-c2ccc(Cl)c(S(=O)(=O)Nc3ccc(F)cc3)c2)no1	0.93	/
Cn1c(C(=O)Nc2ccc(Cl)cc2)c(N2CCCC2=O)c2cc(F)ccc21	0.39	/
OCCCNc1ncnc2c1cnn2-c1ccc(F)cc1	1.1	/
O=C(c1ccco1)N1CCN(C(=O)C2CCN(c3nnc(-n4cccc4)s3)CC2)CC1	1.4	/
COc1ccc(S(=O)(=O)n2nc(C)c(S(=O)(=O)N(C)c3ccccc3)c2C)cc1OC	1.2	/
Cc1cccc(NC(c2cccc(F)c2)c2ccc3ccc(C)nc3c2O)n1 (stereo unspecified)	-0.29	0.12
COC(=O)C1=C(C)NC2=C(C(=O)CCC2)C1c1ccccn1 (stereo unspecified)	1.4	-1.5
COc1ccc(-c2noc(-c3nnn(-c4ccc(C(C)C)cc4)c3C)n2)cc1	0.12	/
O=c1[nH]c2ccc(S(=O)(=O)N(CCO)CCO)cc2[nH]1	1.5	-0.39
Cc1cc(C)c2oc(C(=O)Nc3sc4c(c3C(=O)NCC3CCCO3)CCC4)cc(=O)c2c1 (stereo unspecified)	0.71	-2
CC(C)CN(CCCNS(=O)(=O)c1ccc2c(c1)CCCC(=O)N2)CC(C)C	-0.37	/
Cc1ccc2c(c1C)NC(=O)CC2c1ccc(F)c(F)c1 (stereo unspecified)	0.91	0.2
CCOC(=O)C1=C(O)C(C(=O)c2ccccc2)N=N1 (stereo unspecified)	/	-1.3
Cc1cc(C)c2nc(C3C(=O)c4ccccc4C3=O)ccc2c1	-1.4	0.9
CCOC(=O)c1sc2ccccc2c1S(=O)(=O)Nc1ccccc1Cl	0.18	/
CN=c1nc(-c2ccccc2)n(-c2ccccc2)s1	/	-2.2
COc1ccc(N2CCN(c3nnc(Cc4cccnc4)c4ccccc34)CC2)cc1	1.1	-0.01
CN(C)CCN(C(=O)c1ccc2c(c1)OCCO2)c1nc2ccc(Cl)cc2s1	0.81	/
COC1=NS(=O)(=O)c2ccccc21	/	0.13
CCOCCCNC(=O)c1c(O)nc2cc(C)ccn2c1=O	0.28	-1.1
Cc1nn(C(C)C(=O)NCc2ccco2)c(=O)c2cc3sccc3n12 (stereo unspecified)	-0.06	0.24
O=S(=O)(OC(Cc1ccccc1)C(F)(F)F)c1cc(Cl)c(Cl)s1 (stereo unspecified)	/	-2.3
O=C1c2ccccc2-c2onc3c(N4CCN(c5ccccn5)CC4)cc(NCCO)c1c23	1.3	1.9
COc1ccc(NC2=CC(c3ccc(OC)c(OC)c3)N(c3ccc(OC)cc3)C2=O)cc1 (stereo unspecified)	2.7	-0.57
COc1ccccc1NS(=O)(=O)c1ccc2c(c1)NC(=O)CCS2	-0.6	/

The closing four records of the section above lead into the next:
smiles	TAR Tat displ	CDC25B CDK2 inh
O=S(=O)(OC(Cc1ccccc1)C(F)(F)F)c1cc(Cl)c(Cl)s1 (stereo unspecified)	/	-2.3
O=C1c2ccccc2-c2onc3c(N4CCN(c5ccccn5)CC4)cc(NCCO)c1c23	1.3	1.9
COc1ccc(NC2=CC(c3ccc(OC)c(OC)c3)N(c3ccc(OC)cc3)C2=O)cc1 (stereo unspecified)	2.7	-0.57
COc1ccccc1NS(=O)(=O)c1ccc2c(c1)NC(=O)CCS2	-0.6	/
O=C1C2N=NN(Cc3ccc(F)cc3)C2C(=O)N1c1ccccc1 (stereo unspecified)	2.4	-1.7
CCOC(=O)CNS(=O)(=O)c1c(C)noc1C	0.44	/
O=C(NCCSCc1ccco1)c1ccc(Cl)cc1	/	-1.9
Cc1noc(C)c1CCNC(=O)C1CCN(c2ncnc3c2nc2n3CCCCC2)CC1	-0.21	/
Nc1ccc(-c2nc3c(ccc4ccccc43)[nH]2)cc1	4.4	-2.1
COCCOC(=O)C1=C(C)NC2=C(C(=O)CCC2)C1c1ccc(OC)cc1 (stereo unspecified)	-0.2	-1.3
COc1ccccc1N1CCN(C(=O)c2cc(C)on2)CC1	/	-2.4
COc1ccc(-c2c(C)oc3cc(OC(C)C(=O)O)ccc3c2=O)cc1OC (stereo unspecified)	1	-0.23
CCc1ccc(NCc2nnc3n2CCCCC3)cc1	0.63	/
CC1CN(C(=O)C2CCN(S(=O)(=O)c3cccnc3)CC2)c2ccccc2O1 (stereo unspecified)	1.5	/

Pulled by compound from the entries so far (six):
smiles	TAR Tat displ	CDC25B CDK2 inh
O=C1c2oc3ccc(Cl)cc3c(=O)c2C(c2ccc(O)cc2)N1Cc1ccccc1 (stereo unspecified)	1.5	-1.9
Cc1cc(C)cc(NS(=O)(=O)c2cc3c4c(c2)C(C)C(=O)N4CCC3)c1 (stereo unspecified)	0.66	/
Cc1ccc(-n2c(C)nc3c(cnn3-c3ccc(F)cc3)c2=O)cc1	/	-2.5
O=C(Nc1nc(-c2ccc(Br)cc2)ns1)c1ccccc1	2.2	-0.2
CCCn1c(C)ccc(-c2noc(CCC(=O)Nc3c(C)n(C)n(-c4ccccc4)c3=O)n2)c1=O	-0.58	-1.6
CC(C)CN(CCCNS(=O)(=O)c1ccc2c(c1)CCCC(=O)N2)CC(C)C	-0.37	/

Next records:
smiles	TAR Tat displ	CDC25B CDK2 inh
O=C(COc1ccccc1)Nc1nc(-c2ccc(Br)o2)ns1	0.11	0.39
Cc1c(C(=O)N2CCCC2)oc2c1-c1nn(CC(=O)NCCCN(C)C3CCCCC3)cc1CC2	1.7	/
CC1CSc2ccc(S(=O)(=O)N3CCN(Cc4ccc5c(c4)OCO5)CC3)cc2NC1=O (stereo unspecified)	0.74	/
CCOc1ccc(Nc2nc(N3CCN(C)CC3)nc(N)c2[N+](=O)[O-])cc1	0.2	/
CC(=O)N1c2ccccc2NC2=C(C(=O)CC(C)(C)C2)C1c1ccc([N+](=O)[O-])s1 (stereo unspecified)	1.1	-0.47
O=CN(O)CCCP(=O)(O)O	/	-1.4
Cc1cc(-c2ccccc2)n2nc(C)c(C#N)c2n1	1.3	0.31
O=C(Cn1cnc(S(=O)(=O)N2CCOCC2)c1)Nc1ccc(Cl)cc1F	0.31	/
CN(C)CCCn1c(=O)c2[nH]cnc2n(C)c1=O	-0.73	-2.7
C#CCN1C(=O)C(O)(CC(=O)c2c(C)cc(C)cc2C)c2ccccc21 (stereo unspecified)	0.88	2
O=C(OCc1cc(=O)n2nc(C3CCCCC3)sc2n1)c1ccc(F)cc1	0.2	/

Bioassay records as filed in PubChem.
